Mtb hypoxia rep: PubChem AID 1159583; M. tuberculosis hypoxia-regulated fluorescent reporter, fluorescence; fluorescence inhibition, % (concentration not given with the values); 0.1% of 300,000 active;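 active = 35 to 45% if threefold the growth effect, above 45% if 1.5-fold the growth effect; inactive = the rest, general growth blockers included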;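 note: wells of about 50 µL received 100 nL stock; 0% = vehicle wells and 100% = reference inhibitor wells; whole bacteria with a GFP reporter of the hypoxia response; strong numbers were not always called active; many hits fall short of the cut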
Autofluor counter: counter-screen for toxin protease inhibitors: compound fluorescence; compound autofluorescence counterscreen, microsphere flow cytometry; stronger effect = higher value; fluorescence intensity (test concentration not listed); 3.1% of 360,000 active; AID 624483;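 active = at least 3 SD above the mean of all compounds, about 16000 in these data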;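 note: 100 nL of 1 mM stock went into each well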
Sa RN4220 lethal: growth inhibition of S. aureus RN4220, primary screen, OD600; 16 h; inhibition, % (no concentration beside the values); 0.33% of 330,000 active;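 active = z-score of -3 or lower and OD600 up to 0.18 on both plates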;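 note: plate controls were untreated cells for no effect and reference antibiotic for full effect; stock transfer was 100 nL into about 80 µL; one replicate is shown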
BJeLR viability: MLPCN primary cell-based screen for lethality selective to Ras in HRASV12 cells; BJeLR (HRASV12) viability, CellTiter-Glo ATP luminescence, 48 h; reference of the scale not given here; AID 1554, 2009; 0.17% of 300,000 active; inhibition, % (concentration not given with the values);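 active = replicate mean above 50%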;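 note: 50 nL library stock added to about 25 µL; numbers are from one replicate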
Sa ugtP lethal: growth inhibition of ugtP-null S. aureus, primary screen, RN4220 ugtP deletion, OD600; 0.54% of 330,000 active; growth inhibition, % (concentration not given with the values); 16 h; some inactives read as strong as hits;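 active = z-score under -3 and OD600 up to 0.15 on both plates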;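 note: plate controls were untreated wells for no effect and antibiotic for full effect; wells of about 80 µL received 100 nL stock; the first replicate is given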
PrP UTR inh: inhibition of PrP 5' UTR reporter expression; cell-based PrP 5' UTR mRNA reporter, plate reader; inhibition, % (no concentration beside the values); 0.35% of 340,000 active;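 active = every replicate at 50% or more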;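 note: 0 = median of the neutral control wells; tested in H4 reporter cells; numbers are from one replicate; inactives centre near -14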
Mtb hypoxia rep growth: further read-out of Mtb hypoxia rep, marked with its call; growth inhibition, %; measured here: M. tuberculosis growth (absorbance);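 0% = vehicle and 100% = reference antibiotic; read after six days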
The depositor's hits bear a star; x = no result given; & = joins results of further samples. Not a hit list; about 4% have a hit in one of these screens.

SMILES	Mtb hypoxia rep	Mtb hypoxia rep growth	Autofluor counter	Sa RN4220 lethal	BJeLR viability	Sa ugtP lethal	PrP UTR inh
Cc1ccc(C)c(NC(=O)CN(C)C(=O)CCN2C(=O)c3ccccc3C2=O)c1	x	x	2188	3.1	-3	-2	-26
CCC(C)NCC(O)COCc1ccc(Cl)cc1 (centres undefined)	x	x	3540	2.2	4	5	7
Cc1nn(C)cc1/C=C(/C#N)C(N)=O	2	2	2236	4.6	1	7	-1
O=C(c1ccc([N+](=O)[O-])cc1[N+](=O)[O-])N1CCc2ccccc21	x	x	3779	16	12	7	-17
CC1CCN(C(=O)Cn2cc(C(=O)c3ccco3)c3ccccc32)CC1	-1	12	9385	-1.4	11	-11	-4
NS(=O)(=O)c1ccc(NCC2COc3ccccc3O2)c([N+](=O)[O-])c1 (centres undefined)	5	-4	5025	8.3	10	24	-26
COC(=O)c1cc(S(=O)(=O)NCCCN2CCCC2=O)cn1C	7	1	5171	0.1	0	9	-21
CCC1CCC(C(=O)NC(CCSC)C(=O)NCCc2ccc(S(N)(=O)=O)cc2)CC1 (centres undefined)	3	-2	3015	1.6	10	4	-2
COC(=O)c1cn(NC(=O)c2cccnc2)c(=O)c2ccccc12	1	3	3637	4.4	-1	0	-22
O=C1CNC(=S)N1CCc1ccccc1Cl	3	6	x	1.6	4	6	-15

Taken from above:
For Mtb hypoxia rep, Cc1nn(C)cc1/C=C(/C#N)C(N)=O shows 2
For Sa ugtP lethal, O=C1CNC(=S)N1CCc1ccccc1Cl shows 6
For BJeLR viability, CCC1CCC(C(=O)NC(CCSC)C(=O)NCCc2ccc(S(N)(=O)=O)cc2)CC1 (centres undefined) shows 10
For Sa RN4220 lethal, O=C(c1ccc([N+](=O)[O-])cc1[N+](=O)[O-])N1CCc2ccccc21 shows 16
For PrP UTR inh, COC(=O)c1cc(S(=O)(=O)NCCCN2CCCC2=O)cn1C shows -21

Remaining list, next part
SMILES	Mtb hypoxia rep	Mtb hypoxia rep growth	Autofluor counter	Sa RN4220 lethal	BJeLR viability	Sa ugtP lethal	PrP UTR inh
Cc1ccc(-c2csc(NC(=O)c3ccc4c(=O)n5c(nc4c3)CCCCC5)n2)cc1	8	8	1950	18	7	-5	16
CCc1ccc(N2CC(C(=O)NCCC3=CCCCC3)CC2=O)cc1 (centres undefined)	-5	-2	5832	0.8	8	-1	-18
O=C(CN1CCC(NC(=O)c2cccc(F)c2)CC1)Nc1ccc(Br)cc1	11	-1	4055	-5.1	-1	3	-57
COc1ccc(/C=C2\CCC(C3CCCC3)C2=O)cc1Cn1nc(C)cc1C (centres undefined)	4	13	1972	3.6	-2	-2	-19
COc1cc2c(cc1OC)CN(C(=O)c1ccc3[nH]c(C)c(C)c3c1)CC2	x	x	5917	5.8	-1	3	-58
Cc1oc2c(c(C)cc3oc(=O)c(CC(=O)NCCCN4CCCC4=O)c(C)c32)c1C	x	x	4243	-0.8	-3	-24	-25
Cc1ccc(C2(c3noc(CN4CCC(C(=O)N5CCOCC5)CC4)n3)CCCC2)cc1	-2	7	6000	6.8	8	9	5
COc1ccc(OC)c(S(=O)(=O)NCC(=O)NC2CCCc3ccccc32)c1 (centres undefined)	1	-3	5565	0.9	x	2	-9
COc1ccc(CNC(=O)c2ccc3oc(C(C)C)nc3c2)cc1	x	x	4875	x	2	x	-40
CCOC(=O)CN1C(=O)CC(c2ccc([N+](=O)[O-])cc2)C1=O (centres undefined)	-5	3	3363	3.4	-2	-1	-41
COc1cccc(NC(=S)Nc2ccc(Br)cc2Cl)c1	1	-1	x	-0.9	-4	12	-33
COc1ccc(CC(=O)NN=C(C)CC(=O)NCc2ccco2)cc1OC	3	-2	x	1.5	x	3	x
Cc1ccc(NC(=O)CC2C(=O)NCCN2C(=O)c2ccc(F)cc2)cc1 (centres undefined)	1	3	6358	-1.8	-1	2	-16
CCCn1c(=O)c2c(nc3n2CC(C)CN3Cc2ccccc2)n(C)c1=O (centres undefined)	-3	1	5222	-2.5	-6	-2	-5
COc1ccc(C(O)(CCC(C)C)C(CN2CCOCC2)c2ccc(Cl)cc2)cc1 (centres undefined)	-6	10	3565	-4.6	-4	-13	-25
CCn1c(CCl)nc2cc(S(=O)(=O)N3CCOCC3)ccc21	22	28	3997	-3.2	x	-4	x
Cc1ccc(C(=O)CCC(=O)OCC(=O)N2CCN(S(=O)(=O)c3ccc(C)cc3C)CC2)cc1	-7	-8	2850	-3.5	x	-6	-13
COCCNc1nc(N)c([N+](=O)[O-])c(N2CCCCCC2)n1	5	-1	3804	66	3	64	x
CC(C)Oc1ccc(S(=O)(=O)N2CCCCC2)cc1NC(=O)CC1OC(=O)c2ccccc21 (centres undefined)	-5	4	6240	3.8	0	10	-14
N#C/C(=C\c1c[nH]c2ccccc12)c1nnc2n1CCCCC2	6	0	2388	1.5	8	2	-36

5 entries from above, with values under each structure.
Sequence of screens – Mtb hypoxia rep, Mtb hypoxia rep growth, Autofluor counter, Sa RN4220 lethal, BJeLR viability, Sa ugtP lethal, PrP UTR inh
CCOC(=O)CN1C(=O)CC(c2ccc([N+](=O)[O-])cc2)C1=O (centres undefined)
→ -5, 3, 3363, 3.4, -2, -1, -41
COc1cccc(NC(=S)Nc2ccc(Br)cc2Cl)c1
→ 1, -1, x, -0.9, -4, 12, -33
COc1ccc(CC(=O)NN=C(C)CC(=O)NCc2ccco2)cc1OC
→ 3, -2, x, 1.5, x, 3, x
Cc1ccc(NC(=O)CC2C(=O)NCCN2C(=O)c2ccc(F)cc2)cc1 (centres undefined)
→ 1, 3, 6358, -1.8, -1, 2, -16
CCCn1c(=O)c2c(nc3n2CC(C)CN3Cc2ccccc2)n(C)c1=O (centres undefined)
→ -3, 1, 5222, -2.5, -6, -2, -5

Next part.
SMILES	Mtb hypoxia rep	Mtb hypoxia rep growth	Autofluor counter	Sa RN4220 lethal	BJeLR viability	Sa ugtP lethal	PrP UTR inh
O=S(=O)(c1ccccc1)c1nc(-c2ccccc2)oc1N1CCOCC1	-3	-5	3240	5.5	2	9	-18
S=C1NC2CCCCC2N1 (centres undefined)	7	16	4595	1.9	1	-5	-26
O=C1c2ccccc2NC(c2ccc(O)c(O)c2)N1c1ccccc1Cl (centres undefined)	5	2	3764	5.8	2	-3	-24
COc1ccc(CC(=O)NCC2CCCN(Cc3ccc(SC)cc3)C2)cc1 (centres undefined)	8	4	3863	0.1	3	18	-39
COc1ccc(OCC(=O)Nc2ccc3c(c2)OCO3)cc1	1	-4	3024	4.6	9	1	-10
Cc1cccc(N(CC(=O)NC(C)(C)C)C(=O)CS(=O)CC(=O)Nc2ccc(F)cc2)c1 (centres undefined)	10	-4	4304	5.6	6	10	-4
O=c1nc(-c2ccccc2)cc(C(F)(F)F)[nH]1	10	12	5531	9.7	-6	10	-5
CN1CCN(C(=O)/C=C/c2ccc([N+](=O)[O-])o2)CC1	10	-3	3500	37	34	32	-17
O=C(O)c1ccc(S(=O)(=O)NCc2cccnc2)cc1	11	10	3730	2.7	3	9	-17
O=C(COc1ccc(Cl)cc1)NCCc1ccccn1	3	-3	4476	1.2	9	3	-28
Cc1nn(C)cc1C(=O)Nc1c(C)nn(Cc2ccccc2Cl)c1C	3	8	7280	4.6	1	10	3
O=C(CN1C(=O)NC2(CCc3ccccc32)C1=O)NCc1ccccc1Cl (centres undefined)	-3	5	3491	-6.7	x	-7	-16
CC(=O)Nc1ccc(S(=O)(=O)Nc2ccc3nc(C)sc3c2)cc1	7	8	3667	5.5	x	13	-19
COCCCNC(=O)CCc1ccccc1	9	8	4728	2.7	3	0	-9
COc1cccc(C(NC(=O)c2ccccc2F)NC(=O)c2ccccc2F)c1	11	1	9882	2.2	-18	6	-32
Cc1cccc(C(=O)OCC(=O)Nc2nccs2)c1	10	5	10881	7.3	1	-8	-20
c1ccc(Cn2ncc3c(N4CCN(C(c5ccccc5)c5ccccc5)CC4)ncnc32)cc1	-2	7	4468	-14	-4	17	-19
CCc1ccc(C(=O)C(C)OC(=O)c2nn(C)c(=O)c3ccccc23)cc1 (centres undefined)	8	-8	4179	1.7	3	7	-18
O=C(N(c1ccccn1)c1ccccn1)C12CC3CC(CC(Cl)(C3)C1)C2	8	8	3495	4.6	11	6	-11
COc1cc(/C=N/Nc2ncnc3sc4c(c23)CCC4)ccc1O	x	x	2367	x	11	x	-1

Full records as entered above. Order of values: Mtb hypoxia rep, Mtb hypoxia rep growth, Autofluor counter, Sa RN4220 lethal, BJeLR viability, Sa ugtP lethal, PrP UTR inh
COCCCNC(=O)CCc1ccccc1 reads 9, 8, 4728, 2.7, 3, 0, -9
Cc1nn(C)cc1C(=O)Nc1c(C)nn(Cc2ccccc2Cl)c1C reads 3, 8, 7280, 4.6, 1, 10, 3
Cc1cccc(C(=O)OCC(=O)Nc2nccs2)c1 reads 10, 5, 10881, 7.3, 1, -8, -20
COc1cc(/C=N/Nc2ncnc3sc4c(c23)CCC4)ccc1O reads x, x, 2367, x, 11, x, -1

New compounds follow:
SMILES	Mtb hypoxia rep	Mtb hypoxia rep growth	Autofluor counter	Sa RN4220 lethal	BJeLR viability	Sa ugtP lethal	PrP UTR inh
Cc1ccc(S(=O)(=O)c2c(C(=O)c3ccccc3)cnc3cc4c(cc23)OCCO4)cc1	-10	4	2185	-0.9	4	4	-9
O=C(CN1CCN(C(=O)C2CCCO2)CC1)Nc1ccc(Cl)c(Cl)c1 (centres undefined)	-1	7	5242	1.1	-8	-1	-28
COc1ccc(CN2CCC(C(=O)N3CCN(c4ccccc4F)CC3)CC2)cc1OC	7	6	9424	1.6	-4	1	-17
CC(C)(C)C1CCC2(CC1)C(Nc1cccc(C(F)(F)F)c1)=NC(=S)N2CC#N (centres undefined)	13	9	9653	3.1	4	4	4
CCn1ccnc1CNC(=O)CC1C(=O)NCCN1CC(c1ccccc1)c1ccccc1 (centres undefined)	4	0	4392	4.6	-3	11	-32
CC(C)(C)C1COC(=O)C(Cc2ccc(F)cc2)CC=CCC(CC(=O)NC(CO)Cc2ccccc2)C(=O)N1 (centres undefined)	8&4	4&0	x	2.8&1.1	x	-6&-9	x
Cc1ncsc1CCOC(=O)c1ccc([N+](=O)[O-])cc1	3	0	2774	24	-8	15	-15
COc1ccc(N(C(=O)c2cc3ccccc3oc2=O)C2C=CS(=O)(=O)C2)c(OC)c1 (centres undefined)	-1	1	3134	2.5	6	6	-16
COc1cccc(NC(=S)NCc2ccncc2)c1	14	2	2044	5.5	7	9	-1
Cc1ccc(/C(N)=N/OC(=O)CCC2CCCCC2)cc1	-2	0	16562*	5.4	1	15	-11

Limited to Sa RN4220 lethal, Mtb hypoxia rep growth and Mtb hypoxia rep, for two of the compounds above:
canonical_smiles	Sa RN4220 lethal	Mtb hypoxia rep growth	Mtb hypoxia rep
CC(C)(C)C1CCC2(CC1)C(Nc1cccc(C(F)(F)F)c1)=NC(=S)N2CC#N (centres undefined)	3.1	9	13
CCn1ccnc1CNC(=O)CC1C(=O)NCCN1CC(c1ccccc1)c1ccccc1 (centres undefined)	4.6	0	4

Continuation.
SMILES	Mtb hypoxia rep	Mtb hypoxia rep growth	Autofluor counter	Sa RN4220 lethal	BJeLR viability	Sa ugtP lethal	PrP UTR inh
CC(C)NC(=O)c1ccc(CN2CCC(Cc3ccccc3)CC2)cc1	0	-1	3745	4.3	-6	5	-19
Cc1nnc2c(N3CCN(CCO)CC3)nc3ccccc3n12	10	6	3521	5.1	-1	9	-1
CC(CC(=O)NC(C)C)=NNC(=O)COc1cc(C)c(Br)cc1Br	5	17	x	5.2	x	5	x
CC(C)CN(C(=O)c1cccc(S(=O)(=O)N2CCCCC2)c1)C1CCS(=O)(=O)C1 (centres undefined)	1	-10	5733	3.6	2	8	-15
O=C(OCC#CCSc1nnc(-c2cccc3ccccc23)o1)c1cccs1	x	x	5826	8.8	1	8	-48
COCC1CCN(C(=O)c2ccc(OC3CCN(Cc4ccccn4)CC3)cc2)C1 (centres undefined)	8	-22	5556	-0.2	-9	5	-13
NC(=O)c1cc(S(=O)(=O)NC2CCCCC2)co1	-2	2	22647*	2.1	2	-1	-4
CC(=NNC(=O)c1sc(NS(=O)(=O)c2ccc(C)cc2)nc1C)c1sc(N)nc1C	4	-19	x	6.1	x	35	x
COc1cc(C(c2oc(CO)cc(=O)c2O)c2oc(CO)cc(=O)c2O)cc(OC)c1OC	5	3	5089	3.0	6	7	-19
Cc1sc2ncn(CC(=O)N(C)C3CCCCC3)c(=O)c2c1C	8	2	6651	1.0	-2	0	-12
O=C(c1cccs1)N1CCN(Cc2ccccc2)CC1	8	11	2040	3.0	8	11	-11
C/C(=N\NC(=S)NCc1ccccc1)c1ccco1	x	x	2739	x	2	x	-7
O=C(CC1SCCNC1=O)Nc1cccc(Cl)c1 (centres undefined)	5	1	2877	3.2	-3	1	-22
